# VACV Venus inh: qHTS for Stage-Specific Inhibitors of Vaccinia Orthopoxvirus: Venus Reporter Primary qHTS; Vaccinia virus Venus reporter expression, fluorescence; Potency, µM (doses to about 36.5 µM), for the others: at the top dose activity change, negative = inhibition, hits mostly inhibitors; hit rate 0.46% among 330,000; active means well fitted inhibition curve with a large enough effect; inconclusive means small, poorly fitted or top-dose-only effect; inactive means no such curve, though single readings can be large or run the other way; tested in A549 cells; further: nearly all actives have a fitted effect of over 30% in size; inactives centre near -10
# Vaccinia mCherry: qHTS for Stage-Specific Inhibitors of Vaccinia Orthopoxvirus: mCherry Reporter Primary qHTS. Vaccinia virus mCherry reporter infection, fluorescence; about a quarter of the inactives have no number. Potency, µM (highest dose often 36.5 µM), for the others: at the highest dose activity change, negative = inhibition, usual class: inhibitors. hit rate 0.63% among 310,000. AID 720579, 2013; active = well fitted inhibition curve with a large enough effect; inconclusive = small, poorly fitted or top-dose-only effect; inactive = no such curve, though single readings can be large or run the other way; tested in A549 cells; further: nearly all actives have a fitted effect of over 35% in size; inactives centre near -10
# Starred values were filed as active, the others as inactive; i = inactive; ? = inconclusive; . = no result given; & = joins results of further samples; [ ] = dose if it differs, or a comment. On the % scale 0 is the no-effect control and ±100 the full control effect; potency means the concentration at half of the fitted maximal effect.
cpd	mol	VACV Venus inh	Vaccinia mCherry
1	Cc1ccn2c(=O)nc(SCC(=O)NCc3ccccc3)nc2c1	-6%	-9%
2	Cc1ccc(NC(=O)c2cnc3sc(N4CCOCC4)nn3c2=O)cc1N(C)C	?	?
3	C[n+]1ccccc1/C=C/c1ccc([N+](=O)[O-])cc1	-28%	?
4	Cc1[nH]c2ccccc2c1SCC(=O)N1CCC(C)CC1	-24%	-11%
5	CCc1cccc(NC(=O)CSc2nncn3c2cc2sccc23)c1	-22%	-6%
6	COc1cc2c(c(OC)c1OC)-c1ccc(O)c(=O)cc1C(NC(C)=O)CC2 (stereo not given)	?	-21%
7	CCOC(=O)COc1c(OC)cc(Cl)cc1C1Nc2ccccc2C(=O)N1c1ccc(F)cc1 (stereo not given)	-9%	-17%
8	O=C(Cc1ccc(NC(=O)N2CCSc3ncccc32)cc1)NCc1cccc(Cl)c1	-13%	-11%
9	CCCCn1c(N)c(N(CCOC)C(=O)c2cc3ccccc3cc2OC)c(=O)[nH]c1=O	-5%	-12%
10	COc1ccc(CCNC(=O)CCn2c(=O)c3ccccc3n(CC(=O)Nc3cccc(C)c3)c2=O)cc1OC	12%	9%
11	CCOC(=O)N1CCc2c(sc3[nH]c(=S)[nH]c(=S)c23)C1	-8%[7.34 µM]	-6%[7.34 µM]
12	COc1ccc(Cl)cc1-c1noc([C@@H]2O[C@H](CO)[C@H](O)[C@H](O)[C@H]2O)n1	-4%	21%
13	c1ccc(CCn2c(SCc3ccccc3)nnc2-c2ccncc2)cc1	-13%	-15%
14	COc1cccc(NC(=S)N2CCN(C(c3ccccc3)c3ccccc3)CC2)c1	-26%	-9%
15	CCN(CC)S(=O)(=O)c1ccc(NC(=O)c2cc(=O)[nH]c3ccccc23)cc1	-15%	i
16	CCN1CCN(c2ccc(NC(=O)c3cccc4ncccc34)cc2)CC1	-5%	-8%
17	O=C(NCCOc1ccc(F)cc1)C1CCC(=O)N(CCN2CCOCC2)C1 (stereo not given)	2%	-1%
18	Cn1c(NC(=O)C(C)(C)Oc2ccc(Cl)cc2)cc(=O)n(C)c1=O	-9%	i
19	CCOC(=O)N1CCN(c2cc(=O)n(Cc3ccc(F)cc3)c(=O)[nH]2)CC1	-12%	i
20	Cc1cc(=O)oc2cc(OCC(=O)N3CCOCC3)ccc12	-17%	i
21	Cc1cc(Cl)ccc1NS(=O)(=O)c1ccc2c(c1)CCN2S(C)(=O)=O	-6%	-15%
22	Cc1ccc(/C=[N+](\[O-])c2ccc(N(C)C)cc2)c2nsnc12	11%	1%
23	N#CC1(Cc2ccccc2)c2ccccc2C=CN1C(=O)c1ccccc1 (stereo not given)	-13%	.
24	O=C1CC(N2CCCCC2)C(=O)N1c1ccccc1 (stereo not given)	-8%	-12%
25	COc1cccc2c1cc1c(=O)n(CC(=O)N3CCC(C)CC3)nc(C)n12	-13%	-20%
26	O=S(=O)(CCN1CCSCC1)c1ccc(Cl)cc1	-27%[7.34 µM]	-14%[7.34 µM]
27	O=C(O)c1cc2c(cc1Cl)N1CCCCCC1=NS2(=O)=O	-13%	-29%
28	CCCNC(=O)C1CN(C(=O)c2nn(Cc3ccccc3)c(=O)c3ccccc23)c2ccccc2O1 (stereo not given)	-5%	i
29	Cc1cccc(C)c1NC(=O)C(NC=O)c1ccccc1 (stereo not given)	-10%	.
30	CC(C)(ONC(=O)Nc1ccccc1Cl)C(=O)O	-3%	i
31	O=C(O)CCC(C(=O)O)N1C(=O)C2C3CCC(C3)C2C1=O (stereo not given)	-11%	i
32	COc1ccc(NC(=O)c2ccc3ccccc3n2)cc1S(=O)(=O)N1CCCCC1	-5%	-15%
33	COCCCn1c(=N)c(C(=O)NCC2CCCO2)cc2c(=O)n3cc(C)ccc3nc21 (stereo not given)	9%	8%
34	Cc1ccc(NC(=O)C2(C)CCN2C(=O)C2CCCCC2)cc1C (stereo not given)	-13%	?
35	Cc1nn(C)c(C)c1/C=C(\C#N)C(N)=O	1%	i
36	N=c1c2cn[nH]c2nc(SCC(=O)c2ccc(Br)cc2)n1-c1ccc(Br)cc1	-3%	13%
37	COc1ccc(C(=O)N2c3ccc(C)cc3C(C)(c3ccccc3)CC2(C)C)cc1 (stereo not given)	-10%	-13%
38	COC(=O)c1ccc(C(=O)OC)c(NC(=O)N2CC3CCCN3c3ccccc32)c1 (stereo not given)	-5%	-7%
39	CSC(=Nc1ccccc1)C1=C(O)COC1=O	-22%	.
40	COC(=O)c1ccccc1NC(=O)C1CCN(c2ncnc3c2nc2n3CCCCC2)CC1	-11%	i
41	C=CCn1c(COc2ccccc2)nc2ccccc21	-6%	-2%
42	O=C1CCCc2c1nc(-c1ccc([N+](=O)[O-])cc1)n2O	-8%	i
43	Cc1ccc(S(=O)(=O)N2[C@@H](Cc3ccccc3)CO[C@H]2CC(=O)c2ccc(F)cc2)cc1	-27%	-28%
44	O=C(COC(=O)c1ccc(O)cc1)NCCc1c[nH]c2ccccc12	-21%	-26%
45	Cc1ccsc1-c1cc2nc(NCCCN(C)C)n(C)c(=O)c2s1	-18%	1%
46	COc1ccc(OCc2nnc(SCC(=O)c3ccccc3)o2)cc1	-11%	i
47	CC(C)(C)NC(=O)c1cccc(NC(=O)Cc2ccc(Br)cc2)c1	-16%	-7%
48	CCN(CC)C(=O)c1sc2c(c1C)c(=O)n(-c1ccc(OC)cc1OC)c(=O)n2CC(=O)c1ccc(Cl)cc1	-13%	-23%
49	CCCOC(=O)c1cccc(NC(=O)COc2ccc([N+](=O)[O-])cc2)c1	?	-10%
50	Cc1ccc(CN2CC(N3CCC(c4ccccc4)CC3)CS2(=O)=O)cc1 (stereo not given)	-7%	i
51	Cc1ccc2nc(C3CCN(C(=O)c4ccco4)CC3)[nH]c2c1	-14%	i
52	O=C(CSc1nc2ccccc2c(=O)n1-c1ccc(F)cc1)Nc1ccc2c(c1)CCC2	-10%	i
53	O=C(Nc1cccc(Cl)c1)C1C2C=CC3(O2)C1C(=O)N(CCN1CCCCC1)C3C(=O)NC1CCCCC1 (stereo not given)	-20%	-3%
54	CCc1nn(CC(=O)NCCN(CC(C)C)CC(C)C)c(=O)c2cc3sc(C)cc3n12	-13%	-12%
55	CCCn1c(=S)[nH]c2sc3c(c2c1=O)CCCC3	-7%	39%[activator]
56	Cc1ccc(NC(=O)CC2Oc3ccc(C)cc3NC2=O)c(C)c1 (stereo not given)	-16%	-23%
57	O=C(Oc1ccc(/C=N/Nc2ccccc2)cc1)c1ccccc1	-17%	i
58	CC(=O)c1ccc(N2CCN(C(=O)/C=C/c3ccc(S(=O)(=O)NCc4ccco4)cc3)CC2)cc1	-14%	-9%
59	Cc1ccc(/C=C/C(=O)OCC(=O)NC(C)C)o1	-14%	-3%
60	Cc1ccc(S(=O)(=O)CNC(=S)c2cccc(Cl)c2)cc1	-19%	-18%

# New compounds follow.
cpd	mol	VACV Venus inh	Vaccinia mCherry
61	Oc1ccc(C[C@H]2CN([C@@H](Cc3ccc(O)cc3)CN3CCC[C@@H]3CN3C(=S)NC[C@@H]3Cc3ccccc3)C(=S)N2CC2CCCCCC2)cc1	?	?
62	O=C(CSCc1ccc(F)cc1)N1CCN(c2ccccc2F)CC1	-4%	-4%
63	C=C(C)c1cccc(C(C)(C)NC(=O)N2CCCCC2CC)c1 (stereo not given)	-3%	-9%
64	O=C(NC(C(=O)N/N=C/c1ccccc1)c1n[nH]c(=O)c2ccccc12)c1ccccc1 (stereo not given)	-5%	.
65	CCCn1cnc2scc(-c3ccc(C)cc3)c2c1=O	-9%	i
66	O=C(CCSc1ccccc1)N1CCN(c2ccccc2)CC1	-2%	-29%
67	CCCOc1ccc(NC(=O)CC2C(=O)N(c3cccc(OC)c3)C(=O)N2CCc2ccncc2)cc1 (stereo not given)	-7%	-5%
68	COC(=O)c1sc(-c2ccc(Cl)cc2)cc1N	-19%	-26%
69	CC(=O)Nc1ccc(S(=O)(=O)NCC2CCC(C(=O)NCCc3ccccc3)CC2)cc1 (stereo not given)	-6%[7.34 µM]	-2%
70	Cn1c(=O)n(C)c2cc(S(=O)(=O)NCCO)ccc21	-12%	-6%
71	Cc1c(C(=O)NNS(=O)(=O)c2ccccc2Cl)sc(=S)n1C	3%	-2%
72	Cc1cc2c(Nc3ccccc3)ncnc2s1	-27%	-6%
73	CCn1ncc(Br)c1C(=O)Nc1ccc(C(C)C)cc1	-16%	-8%
74	CN1CCC(C)(C(=O)Nc2ccc3c(c2)OCCO3)C1 (stereo not given)	-8%	43%[activator]
75	Cc1ccccc1-n1cnc2c(sc3nc(N4CCOCC4)c4c(c32)CCCC4)c1=O	2%[7.34 µM]	i[7.34 µM]
76	Cc1cc2c(cc1C)N(C(=O)CSC1=NCCS1)C(C)(C)c1ssc(=S)c1-2	-10%	-21%
77	COc1cccc2cc(C(=O)N3C(C)CCCC3C)c(=O)oc12 (stereo not given)	21%	-18%[1.46 µM]
78	CC(=O)N(c1ccc(Cl)cc1)c1cn(C(C)=O)c2ccccc12	-13%	-5%
79	COc1ccc(NC(=O)CSCc2ccc(C#N)cc2)c(OC)c1	-14%	-8%
80	Cn1nc(C(=O)NC2CCCCC2)c2c1-c1ccccc1S(=O)(=O)C2	-13%[7.34 µM]	i[7.34 µM]
81	Cc1nn(C)c(Cl)c1CN1CCC(n2nccc2NC(=O)C2CCCC2)CC1	-4%	-17%
82	CN(Cc1cccs1)C(=O)CSc1nc2ccccc2[nH]1	-12%	-2%
83	O=C(Nc1ccc2c(c1)OCO2)C1CCCN1C(=O)OCc1ccccc1 (stereo not given)	-21%	.
84	CCCCCCNC(=O)N[C@@H](Cc1ccc(O)cc1)C(=O)NCCC[C@H]1CN2C(=NC[C@H]2C)N1CC1CCC1	4%	-11%
85	Cn1cc(/C=C/C(=O)N2CCCC(C(=O)c3cccc(C(F)(F)F)c3)C2)cn1 (stereo not given)	3%	-11%
86	CCCn1cc(S(=O)(=O)c2ccc(OC)cc2)c(=O)c2cc(F)c(N3CCCCCC3)cc21	?	?
87	O=C(CN(C(=O)CNC(=O)c1ccco1)c1ccccc1F)NC1CCCCC1	-11%	-10%
88	O=C(NCc1ccco1)C1CCN(S(=O)(=O)c2cccc3cccnc23)CC1	-13%	i
89	CCNS(=O)(=O)c1cc(OC)c(Cl)cc1OC	-14%	-12%
90	Cc1c2cnn(-c3ccccc3)c(=O)c2c(C)n1C(C)C(=O)Nc1ccccc1C(F)(F)F (stereo not given)	-4%	-15%
91	Cc1ccc(NC(=O)c2ccc(S(=O)(=O)NCC3CCCO3)cc2)cc1C (stereo not given)	-12%	i
92	CCn1c(N2CCN(CC(=O)c3c(C)n(C)c4ccc(OC)cc34)CC2)nc2c1c(=O)[nH]c(=O)n2C	-2%	-13%
93	COC(=O)N/N=C/c1ccccc1OCCOc1ccc(OC)cc1	0%	i
94	COc1ccc(C(CN(C)C)C2(O)CCCCC2)cc1 (stereo not given)	-8%&-8%	-15%&-9%
95	CC(=O)N(/N=C1/C(=O)Nc2ccccc21)c1ccccc1	-2%	-28%
96	C=CCn1c(=O)c2ccc(C(=O)NCc3ccccc3)cc2n(Cc2ccc(C)cc2)c1=O	?	-18%
97	Cc1ccc(N2CC(C(=O)N3CCC(c4nc5ccccc5[nH]4)CC3)CC2=O)cc1C (stereo not given)	-27%	-26%
98	Nc1c(C(=O)O)cnc2c(-c3ccc(Cl)cc3)cnn12	-28%	?
99	COc1ccc(NC(=O)[C@@H]2[C@@H]3C(=O)N(C4CCCCC4)C(=O)[C@@H]3C3c4ccccc4C=CN32)cc1 (stereo not given in full)	13%	.
100	CC(=O)N1c2ccc(S(=O)(=O)N3CCN(c4cccc(Cl)c4)CC3)cc2CC1C (stereo not given)	-20%	-18%
101	COCCN1C(=O)c2oc3cc(C)cc(C)c3c(=O)c2C1c1cccc(O)c1 (stereo not given)	-2%	-2%
102	O=C(O)CN1C(=O)C2C3CCC(C3)C2C1=O (stereo not given)	-5%	-8%
103	CCCCOc1cccc(C(=O)Nc2cc3nn(-c4ccc(F)cc4)nc3cc2C)c1	-13%	-12%
104	O=[N+]([O-])c1ccc(N2CCOCC2)cc1	-10%	i
105	COCC(=O)N[C@@H]1c2ccccc2CC[C@@H]1OCc1ccccc1	-4%	i
106	Cc1cc2n(n1)C(c1c[nH]c3ccccc13)Nc1ccccc1-2 (stereo not given)	-23%	?
107	COc1ccc2nc(/C=N/NC(=O)CCNC(=O)OC(C)(C)C)ccc2c1	-21%	-6%
108	O=C(CN1C(=O)c2ccccc2C1=O)N1CCOCC1	-9%	-14%
109	CC(C)(C)OC(=O)N(CCc1ccccc1)Cc1cccc(OCc2cccc(NC(=O)C3CCC3)c2)c1	-5%	0%
110	COc1ccc(CN2CCN(CCCCOc3ccc(Cl)cc3)CC2)c(OC)c1OC	-11%	i

# Assay outcomes deposited in PubChem by National Center for Advancing Translational Sciences (NCATS).
